Assay outcomes as filed in PubChem.
S aureus helic: inhibitors of S. aureus replicative helicase, primary screen, biochemical, fluorescence unwinding readout; replicative DNA helicase (DnaC/DnaB), Staphylococcus aureus; purified S. aureus helicase, fluorescence unwinding assay; about half of the hits fall short of the stated cut; inhibition, %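 (tested at about 80 µM)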; 120,000 compounds, 0.05% hits; AID 485395, 2010;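 active means both duplicates at 50% or more, or one of them with a favoured structure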;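 further: 0% = mean of negative control wells and 100% = mean of positive control wells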
MgrA DNA FP: S. aureus MgrA activity modulators, primary screen, biochemical, S. aureus Newman, fluorescence polarization | AID 602314, 2012 | MgrA-DNA binding | inhibition, %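 (about 10 µg/mL by stock and volumes)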 | 84,000 compounds, 0.13% hits;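 active means above 50% in either of two replicates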;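 further: 0% = protein plus DNA without compound and 100% = DNA alone without protein; higher means less MgrA bound to DNA so lower polarization; one replicate is shown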
* marks the source's active call; other numbers are inactive results; · = no result given; & = joins results of further samples. These rows are one share of the data. The share of hits here may be higher or lower than overall.

S aureus helic | MgrA DNA FP | SMILES
-9 | · | CNC(=O)N1CCn2cccc2C1C (stereo unspecified)
-3 | · | COc1ccc(CCn2c(C)cc(C(=O)CN3CCOCC3)c2C)cc1
7 | 0.8 | Cc1cc2n(n1)C(c1ccccc1)CC(c1ccccc1)=N2 (stereo unspecified)
7 | 0.3 | CNC(=S)Nc1cccc(Cn2cc(Cl)cn2)c1
-5 | 4.2 | CCOC(=O)c1c(NC(=S)N2CCN(C(=O)c3ccco3)CC2)sc2c1CCCCCC2
15 | 0.7 | Cc1cc(C)c(OCCCN2CCCC2)c(C)c1
-4 | 8.2 | N#Cc1c(-c2cccs2)cc(C(F)(F)F)[nH]c1=S
10 | -4.2 | O=C(Nc1ccccc1C(F)(F)F)c1cnc2ccccn2c1=O
5 | 3.8 | COC(=O)C1(C(O)C(=O)c2ccc(C)cc2C)CCCCC1 (stereo unspecified)
· | 0.0 | O=C(Nc1cccnc1Oc1ccc(Cl)cc1)c1cccc2ccccc12
0 | 7.3 | CCOC(=O)CN1CCOCCN(CC(=O)OCC)CCOCC1
23 | · | COc1cc(/C=N/N2C(=O)C(CC(=O)O)SC2=Nc2c(C)n(C)n(-c3ccccc3)c2=O)ccc1O (stereo unspecified)
· | -1.4 | COc1cc2c(cc1OC)C(C)N(C(=O)c1c(C)noc1C)CC2 (stereo unspecified)
4 | 0.8 | COCCn1c(NN)nc2ccsc2c1=O
-10 | · | N#CCOC(=O)c1cn(-c2ccccc2)nc1-c1ccccc1
· | -1.1 | CC(C)=NNC(=O)c1cccnc1
-32 | · | CCOC(=O)c1c[nH]c2ccc(OCC)cc2c1=O
-14 | 3.0 | CC(C)CNc1nc(=S)nc(N(C)C)[nH]1
3 | · | O=S(=O)(/C=C/c1ccccc1)N1CCc2ccccc21
6 | -1.0 | O=C(Cn1nnc2c(cnn2-c2ccccc2)c1=O)N(c1ccccc1)c1ccccc1
· | -0.8 | O=c1oc(-c2ccco2)nc2cccc(F)c12
· | -2.5 | OC(CNCc1ccc2c(c1)OCO2)CSc1cccs1 (stereo unspecified)
-16 | · | CCn1c(COC(=O)Cn2c(=O)oc3ccccc32)nc2cc(S(=O)(=O)N(C)C)ccc21
3 | · | C=CCOc1ccc(C(=O)n2cc(Br)cn2)cc1
4 | · | Cc1cnc(C(=O)OCC(=O)N2CCCc3ccccc32)cn1
6 | · | Cc1sc2c(=O)n3c(nc2c1C(=O)NC1CCCCC1)CCCCC3
9 | 0.4 | Cc1ccccc1OC1C(=O)N(CCc2ccc(F)cc2)C1c1ccc2c(c1)OCO2 (stereo unspecified)
12 | -0.5 | CCNS(=O)(=O)c1ccc(Br)c2ccccc12
13 | · | COc1cc(C(=O)NC(C)c2nc3ccccc3[nH]2)cc(OC)c1OC (stereo unspecified)
16 | · | COC(=O)c1cc(OC)c(OC)c(OC)c1-n1c(C)cc(C(N)=O)c1C
-3 | · | CC(OC(=O)C1CC(=O)N(CCc2ccccc2)C1)C(=O)Nc1ncc(Cl)cc1Cl (stereo unspecified)
9 | -6.9 | O=C(CC(c1ccccc1)c1ccccc1)N1CCN(Cc2ccc3c(c2)OCO3)CC1
16 | · | CCCc1n(CC(=O)C(C)(C)C)c2ccccc2[n+]1C
-8 | -1.1 | O=C(COc1ncnc2ccccc12)NC1CCCCCC1
-8 | · | O=C(CNc1ccccc1C(=O)NCc1ccco1)Nc1ccc2c(c1)OCCO2
-17 | · | CNC(=O)COc1cccc2c1OC(C)(C)C2
19 | -5.3 | Cc1ccccc1NC(=O)c1ccc2nc(C)c(C)nc2c1
3 | · | Cc1nc2scc(C)n2c1/C=N/NC(=O)CSc1cccc2cccnc12
· | -1.9 | Cc1cc2nnc(C(=O)O)c(C)n2n1
2 | -0.7 | Cn1c(C=Nc2ccc(Cl)cc2)nc2ccccc21
-1 | -1.4 | COc1ccc(CC(=O)Nc2ccc(-c3nnc4n3CCCCC4)cc2)cc1
-21 | · | Cn1nc(C(F)(F)F)cc1-c1ccc(C=C(C#N)C#N)s1
0 | 4.2 | CC(=C\C(=O)O)/C(=C/c1ccccc1)C(=O)O
26 | · | N#Cc1cccc(C#N)c1Oc1ccc(S(=O)(=O)N2CCCCC2)cc1
13 | · | O=C(Cn1cnc2c(cnn2-c2ccccc2)c1=O)Nc1ccccc1
-11 | 1.9 | COc1ccc(-c2nc3ccccc3c(=O)[nH]2)cc1
· | -2.0 | NC(=O)c1ccc([N+](=O)[O-])o1
-14 | 0.2 | Cc1cc2[nH]c(=O)c(=O)[nH]c2cc1S(=O)(=O)N1CCCc2ccccc21

Quoted at random: five compounds from above, in no set order.
S aureus helic | MgrA DNA FP | SMILES
26 | · | N#Cc1cccc(C#N)c1Oc1ccc(S(=O)(=O)N2CCCCC2)cc1
-1 | -1.4 | COc1ccc(CC(=O)Nc2ccc(-c3nnc4n3CCCCC4)cc2)cc1
-11 | 1.9 | COc1ccc(-c2nc3ccccc3c(=O)[nH]2)cc1
-14 | 0.2 | Cc1cc2[nH]c(=O)c(=O)[nH]c2cc1S(=O)(=O)N1CCCc2ccccc21
0 | 4.2 | CC(=C\C(=O)O)/C(=C/c1ccccc1)C(=O)O

Going on with the list:
S aureus helic | MgrA DNA FP | SMILES
-19 | · | CC(C)(C)NC(=O)Cn1c(S(=O)(=O)Cc2ccccc2)nc2ccccc21
-67 | · | COc1cc(/C=C2/C(=N)N3C(=NC2=O)SN=C3S(=O)(=O)C(C)C)cc(Cl)c1OC(=O)c1ccco1
-30 | · | COc1cc(C(CC(=O)O)CC(=O)Nc2ccc(C)cc2)cc(OC)c1OC (stereo unspecified)
4 | · | COc1ccc(N2CC(C(=O)Oc3coc(CSc4ncccn4)cc3=O)CC2=O)cc1 (stereo unspecified)
-2 | · | N#Cc1ccsc1NC(=O)CCCSc1nc2ccccc2[nH]1
-6 | · | COC(=O)C1=C(C)NC(C)=C(C(=O)OC)C1C(=O)OCC(=O)c1cc(C)n(-c2nccs2)c1C
11 | · | Cc1ccc2c(CN(C)CCC#N)cc(=O)oc2c1
-4 | · | Cc1cc(/C=c2\sc3nc4ccccc4n3c2=O)c(C)n1C(C)C
-3 | 0.1 | COC(=O)c1onc(C(=O)c2ccccc2)c1C(=O)OC
-17 | 0.1 | COc1ccc(C2C3=C(CC(C)(C)CC3=O)Nc3c2c(=O)[nH]c2nc(C)nn32)cc1 (stereo unspecified)
-3 | 4.0 | O=C(CCN1C(=O)c2ccccc2C1=O)Nc1ncn[nH]1
9 | · | CCCOc1cccc(C(=O)O)c1
0 | · | CCOC(=O)CC1(N)CCCCC1
-3 | -0.6 | C=CCn1c(COc2ccccc2)nnc1SC(C)C(=O)Nc1nccs1 (stereo unspecified)
11 | · | CC(C)n1ncc(C(N)=O)c1N
7 | 0.9 | CSc1ccc(NC(=O)NCCCN2CCC(Cc3ccccc3)CC2)cc1
· | -0.1 | COC(=O)c1cc(Br)cc(Br)c1
· | -1.6 | CCC(=O)c1c[nH]c(C(=O)Nc2ccc(OC)cc2)c1
· | 4.8 | CC(=O)c1sc2nsc(SCCN3CCOCC3)c2c1N
· | -2.3 | O=C(Nc1ccc(-c2cnco2)cc1)C1CC1
· | -0.2 | COc1ccccc1N=C(NO)c1ccccc1Cl
11 | -3.5 | O=C(O)c1cc2c(s1)CCC2
· | 1.2 | CCOC(=O)c1cc2ccccc2[nH]1
-20 | · | CCOC(=O)c1cnc(Nc2nc3ccccc3o2)nc1CSc1ccc(Cl)cc1
15 | · | O=C(O)c1ccc(NC(=O)C2CCCCC2)cc1
5 | -0.1 | Cc1ccc(C2=NN=C(NC(=O)CSc3ccccc3)SC2)cc1
1 | · | N#Cc1c(C(F)(F)F)cc(C2CC2)[nH]c1=O
6 | · | O=C(Cc1ccc(-c2ccccc2)cc1)NCc1nc(-c2ccccc2)no1
7 | · | Cc1cc(C)cc(Nc2ncnc3nc[nH]c23)c1
5 | -0.9 | CC1CCN(S(=O)(=O)c2ccc3c(ccn3CC(=O)NCc3ccccc3)c2)CC1
· | 1.0 | CC1CC(=O)Nc2ccccc2N1S(=O)(=O)c1ccc(-c2cc(C(F)(F)F)on2)s1 (stereo unspecified)
3 | · | CCOC(=O)C1CCCN(C(=O)c2ccc(C)cc2O)C1 (stereo unspecified)
11 | · | COc1ccc(-c2nnc(SC(C)C(N)=O)o2)cc1 (stereo unspecified)
3 | · | Cc1cc(C)c2nc(N3CCCC(C(=O)N4CCN(c5ccccn5)CC4)C3)sc2c1 (stereo unspecified)
14 | · | O=C(O)c1ccccc1NCc1ccncc1
5 | 1.1 | CN(Cc1ccccc1)C(=O)CSc1nc2ccc(Br)cc2c2nc3ccccc3n12
· | -1.0 | COc1cc(C(CC(=O)O)CC(=O)Nc2cc(C)on2)cc(OC)c1OC (stereo unspecified)
· | 1.1 | O=C(NCc1ccc(Cl)c(Cl)c1)c1c[nH]c2ccccc12
25 | · | Cc1c(C(=O)N2CCC(C(=O)N3CCN(c4ccccc4)CC3)CC2)oc2cc3sc(N(C)C)nc3cc12
4 | -2.5 | Cc1cc(C)cc(-n2c(C)cc(/C=C3\SC(=O)NC3=O)c2C)c1
· | 0.5 | CNc1ccc(S(=O)(=O)O)cc1
· | -2.1 | NC(=S)NCc1ccco1
-13 | 1.2 | CC1CCCC(NC(=O)COC(=O)/C=C/c2ccco2)C1C (stereo unspecified)
-3 | · | COCC(C)N=C1NN=C(c2cc(C)n(-c3c(C)n(C)n(-c4ccccc4)c3=O)c2C)CS1 (stereo unspecified)
· | -0.5 | Cc1cccc(Cl)c1-c1nn[nH]n1
6 | 0.7 | C=CCNC(=O)Cc1ccccc1OC
-15 | · | CCn1c(=O)c(C)nc2cc(C(=O)Nc3ccc4c(c3)OCCCO4)ccc21
-6 | 6.4 | COc1ccc2[nH]c(=O)c(CN(c3ccccc3)S(=O)(=O)c3ccccc3)cc2c1
· | -1.5 | O=C1CS(=O)(=O)CC(=O)N1c1ccc(Cl)c(Cl)c1
13 | -0.9 | CC1(C)CC(=O)c2cc(OCC(=O)NC3CCCC3)ccc2O1
10 | 3.2 | COc1ccc(NS(=O)(=O)c2ccc3c(c2)OCC(=O)N3)cc1
17 | -2.1 | COc1ccc(-c2nsc3c(N4CCCCC4C)ncnc23)cc1 (stereo unspecified)
-6 | · | CCC(C)NC(=O)CSc1ccc(S(=O)(=O)N2CCN(Cc3ccccc3)CC2)cn1 (stereo unspecified)
5 | -2.7 | Nc1nc(-c2ccco2)nn1S(=O)(=O)c1ccccc1
11 | · | O=C(NCc1ccncc1)c1ccc(N2CCCCS2(=O)=O)cc1
-3 | · | N#CCN1C(=O)c2ccccc2C1=O

(next part)
S aureus helic | MgrA DNA FP | SMILES
-17 | 1.4 | CCN(C(=O)COc1ncnc2ccccc12)C1CCCCC1
-12 | · | NS(=O)(=O)c1ccc(CNC(=O)CSc2ncccn2)cc1
-5 | · | CCS(=O)(=O)NCc1csc(C)n1
· | -0.6 | Cc1onc(-c2ccccc2)c1CNC(=O)c1ccccc1
14 | 0.7 | CC(C)C(=O)NC1C2CC3CC(C2)CC1C3 (stereo unspecified)
-12 | · | Cc1cc(C)c(S(=O)(=O)N(CCC(C)C)S(=O)(=O)c2ccccc2C#N)c(C)c1
· | 2.3 | COc1ccc(-c2c(C)n[nH]c2C)c(C(=O)O)c1
3 | · | O=C(O)c1cccc2c1C(=O)N(Cc1cccnc1)C2

3 entries already listed, ordered by length of the SMILES, ascending.
S aureus helic | MgrA DNA FP | SMILES
14 | 0.7 | CC(C)C(=O)NC1C2CC3CC(C2)CC1C3 (stereo unspecified)
· | -0.6 | Cc1onc(-c2ccccc2)c1CNC(=O)c1ccccc1
-12 | · | NS(=O)(=O)c1ccc(CNC(=O)CSc2ncccn2)cc1

The results go on.
S aureus helic | MgrA DNA FP | SMILES
-4 | · | O=C(Nc1cccc(Cl)c1)c1cc(=O)c2ccccc2o1
-2 | -2.1 | CCN(CC)S(=O)(=O)c1cc(C(=O)NC)ccc1Cl
-14 | 0.9 | O=C(NCc1ccncc1)Nc1ccccc1
2 | -0.8 | O=C1NC(=O)c2cc(-c3ccccc3)ccc21
5 | 1.4 | CN1CCCCc2c1nc1ccccc1c2N
8 | · | N=C1C(c2nc3ccccc3[nH]2)=C(O)CN1CCN1CCOCC1
13 | · | O=C(OCC(=O)N1CCCCC1)c1ccc(I)cc1
-14 | -0.4 | Cc1ccc(C(=O)CSc2cnc3ccccc3n2)cc1C
10 | 47 | Cc1nc2c(oc3nc(-c4ccco4)c4c(c32)CC(C)(C)OC4)c(-c2ccccc2)c1C(=O)O
· | 0.3&-2.5&0.7 | CC/C(=C(\c1ccccc1)c1ccc(OCCN(C)C)cc1)c1ccccc1
4 | 2.1 | Cc1nn(-c2ccccc2)c2sc(C(=O)N(Cc3ccccc3)Cc3ccccc3)cc12
6 | · | O=C(Cn1cnc2ccccc2c1=O)NCCSCc1ccco1
-4 | -0.7 | CC(C)(C)c1nc2scc(-c3ccc(Br)cc3)c2c(=O)o1
19 | -9.5 | CCN(CC)CCCNc1nc(C)nc2c1nnn2Cc1ccccc1
6 | 0.2 | COC(=O)c1ccc(NC(=O)CCSc2ccccc2)cc1
-5 | · | Cc1noc(C)c1COc1ccc(C(=O)OCC(=O)NC23CC4CC(CC(C4)C2)C3)cc1
-8 | 1.1 | CN1C(=O)C(C)(C)c2cc(S(=O)(=O)N3CCCC3)ccc21
8 | · | c1ccc(-c2cc(-c3nnco3)c3ccccc3n2)nc1
-2 | · | CCCNC(=O)c1ccc(NC(=O)N2CCCCc3ccccc32)cc1
· | 0.9 | O=C(NC(=O)N1CCCC1)C1CCN(c2cnc3ccccc3n2)CC1
17 | 7.0 | COc1cccc(C2C(C#N)=C(N)Oc3c2c(C)nn3-c2ccccc2)c1 (stereo unspecified)
· | -0.8 | O=C(/C=C1/NCCS1)c1ccc(Cl)cc1
4 | -1.7 | CC1CC(C)CN(C(=O)CSc2nc3ccccc3c3nc4ccccc4n23)C1 (stereo unspecified)
-28 | · | O=C(O)c1cn(CCOc2ccccc2)c2ccccc12
